# Compound activity (PubChem)
# Rango dissoc inh – qHTS Assay for Inhibitors of RanGTP induced Rango (Ran-regulated importin-beta cargo) - Importin beta complex dissociation | 340,000 compounds, 0.071% hits | Biochemical FRET Rango-importin beta, RanGTP-induced dissociation | Snurportin-1 (Homo sapiens) + GTP-binding nuclear protein Ran (Homo sapiens) + Importin … | Potency, µM (doses to about 46.1 µM), inactives show top-dose activity change, negative = inhibition; active means falling FRET ratio curve, often poorly fitted, with flat reads before Ran was added; inconclusive means other falling curves, or compound fluorescence or quenching; inactive means flat or rising ratio curve;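 also: potency is read from the fitted curve at half-maximal effect; % of control where 0% means no effect; nearly all actives have a fitted effect of over 45% in size; -100% = wells without RanGTP and RCC1; the record marks most hits as doubtful in a second field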
#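 Rango/importin beta premix (0.1/0.25 uM final), PBS + 1 mM DTT + 0.02% Tween-20 + 0.1% BSA; cpd 5 min RT; FRET pre-read; + RanGTP-RCC1 (0.6 uM Ran, 2 mM GTP, 0.2 uM RCC1); 45 min RT; FRET post-read, ex 430, em 486/530 nm.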
# Rango complex inh – qHTS Assay for Inhibitors of Rango (Ran-regulated importin-beta cargo) - Importin beta complex formation. Importin subunit beta-1 (Homo sapiens), Q14974. Rango CFP/YFP FRET sensor + importin beta, 45 min. Potency, µM (doses to about 92.2 µM), without a hit: at the highest dose inhibition of complex formation. 340,000 compounds, 0.031% hits; active = rising FRET ratio curve, often small or poorly fitted; inconclusive = mostly compound fluorescence or quenching in the first reads; inactive = flat curves in all reads;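 also: potency is read from the fitted curve at half-maximal effect; 0% = DMSO wells and 100% = buffer wells lacking importin beta; nearly all actives have a fitted effect of over 15% in size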
# Target sequence (Q14974 whole entry, looked up): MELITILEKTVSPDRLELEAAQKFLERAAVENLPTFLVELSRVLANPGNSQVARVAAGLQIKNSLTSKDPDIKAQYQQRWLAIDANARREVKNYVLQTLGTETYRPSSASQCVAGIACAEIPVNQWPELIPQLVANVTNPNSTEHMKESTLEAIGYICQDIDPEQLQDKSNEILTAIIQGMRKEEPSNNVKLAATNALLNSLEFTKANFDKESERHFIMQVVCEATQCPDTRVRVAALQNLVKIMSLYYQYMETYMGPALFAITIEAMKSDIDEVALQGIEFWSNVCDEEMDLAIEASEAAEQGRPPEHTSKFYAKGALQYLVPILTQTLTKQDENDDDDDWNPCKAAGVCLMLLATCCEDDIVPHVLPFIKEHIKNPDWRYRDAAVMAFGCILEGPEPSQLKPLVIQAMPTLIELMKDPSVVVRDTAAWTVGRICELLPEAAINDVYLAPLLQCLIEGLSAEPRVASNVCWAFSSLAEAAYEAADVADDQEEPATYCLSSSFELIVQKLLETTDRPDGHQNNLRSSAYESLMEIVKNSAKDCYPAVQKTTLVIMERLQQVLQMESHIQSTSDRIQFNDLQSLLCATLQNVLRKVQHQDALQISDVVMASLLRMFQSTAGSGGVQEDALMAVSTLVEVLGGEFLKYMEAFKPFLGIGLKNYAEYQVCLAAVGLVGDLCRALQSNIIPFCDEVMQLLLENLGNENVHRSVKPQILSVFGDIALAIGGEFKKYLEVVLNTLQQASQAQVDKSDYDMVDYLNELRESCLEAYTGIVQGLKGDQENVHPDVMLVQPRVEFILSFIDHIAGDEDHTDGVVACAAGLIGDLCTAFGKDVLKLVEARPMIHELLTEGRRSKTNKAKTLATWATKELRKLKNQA
#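 FRET biosensor (snurportin 1 IBB flanked by EYFP and cerulean), 50 nM, with compound 5 min, then 0.125 microM importin beta in PBS, 1 mM DTT, 0.02% Tween-20, 0.1% BSA. CFP/YFP ratio read after 45 min at room temperature; pre-read flags interference.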
# miR-21 FLuc – qHTS Assay for Modulators of miRNAs and/orActivators of miR-21. HeLa miR-21 FLuc reporter, luciferase, 48 h. Potency, µM (doses to about 38.3 µM), for the others: top-dose reporter change, positive = more light. 340,000 tested, under 10 active. AID 2288, 2010; active = well fitted rising curve with a large enough effect; inconclusive = small, poorly fitted or top-dose-only effect; inactive = no such curve, though single readings can be large or run the other way;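 also: % of control where 0% means no effect; miR-21 action dims this reporter so a rising signal means less miR-21 action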
#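 Luminescence from a firefly luciferase reporter carrying a miR-21 binding site downstream, stably expressed under a CMV promoter in HeLa cells that make miR-21 endogenously, reports miRNA modulation after 48 h compound exposure up to approximately 40uM final.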
# GLA inh pH 4.5 – qHTS Assay for Inhibitors of Human alpha-Galactosidase at pH 4.5. Alpha-galactosidase A (Homo sapiens), P06280. purified enzyme, 4-MU-alpha-Gal fluorescence, pH 4.5. activity change, negative = inhibition, % at 105 µM. 230,000 tested, under 10 active; inconclusive = small, poorly fitted or top-dose-only inhibition, or a rising curve; inactive = flat fitted curve, though single readings scatter; no compound was filed as active;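 also: 0% = full activity with enzyme and -100% = basal without enzyme; dose as in the result columns while the protocol names 77 µM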
# Starred values were filed as active, the others as inactive; ? = inconclusive; · = not tested or not shown; & = joins results of further samples.
no.	molecule	Rango dissoc inh	Rango complex inh	miR-21 FLuc	GLA inh pH 4.5
1	Cc1ccc(CCNC(=O)c2cc(S(=O)(=O)N3CCCC3)cn2C)cc1	8%	?	-3%	·
2	COc1cc(NC(=O)c2cc(-c3cccnc3)nc3ccc(Br)cc23)cc(OC)c1	-15%	-3.4%	-4%	6
3	Cn1c(NNC(=O)CCC2CCCCC2)cc(=O)n(C)c1=O	-17%	?	-10%	-14
4	CN(C(=O)COC(=O)c1ccc(Cl)c(S(=O)(=O)NCc2ccccc2)c1)C1CCS(=O)(=O)C1 (stereo not drawn)	14%	0.1%	·	·
5	O=C(CCC(=O)OCC(=O)c1ccccc1)Nc1cccc(Cl)c1	-5%	3.8%	2%	4
6	CCOc1ccccc1NC(=O)c1csc(C)c1C	-1%	-3.7%	-13%	·
7	CCOC(=O)c1ccc(NCc2cccnc2)cc1	15%	-2.0%	-27%	·
8	CCOC(=O)C1C(=O)NC(c2ccccc2)=NC1c1ccc(O)c(OC)c1 (stereo not drawn)	15%	2.2%	-2%	11
9	CCOC(=O)C1=C(O)/C(=C\c2ccc(CNC(=O)C(=O)Nc3ccccc3)o2)N=C1C	?	?	-9%	-1
10	O=C(c1cccc(Cl)c1)C1CCCN(S(=O)(=O)c2ccccc2)C1 (stereo not drawn)	18%	2.8%	-3%	·
11	Cc1cccn2c(=O)c3cc(S(=O)(=O)c4ccccc4)c(=N)n(Cc4ccco4)c3nc12	?	?	-20%	5
12	COc1cc(C(NC(C)=O)NC(C)=O)ccc1OCc1ccccc1	17%	-3.8%	0%	-2
13	COCCNC(=S)N1CCc2cc(OC)c(OC)cc2C1COc1ccc(C(C)C)cc1 (stereo not drawn)	-7%	-3.9%	-10%	-6
14	Cc1c(C#N)c2ccccc2n1CC(=O)N1CCCC1	-11%	3.4%	1%	-5
15	Cc1nc(-c2ccc3c(c2)OCCO3)cs1	11%	1.5%	-59%	4
16	O=C(Nc1nc2ccccc2s1)C1CCN(C(=O)c2ccco2)CC1	-3%	4.6%	6%	·
17	O=C(c1ccco1)N1CCN(c2cccc(Cl)c2)CC1	-4%	3.8%	-38%	0
18	COc1ccc(NC(=O)c2cc(CC(C)C)on2)cc1OC	22%	4.0%	-31%	9
19	Cc1ccc(-c2nc(CS(=O)CC(=O)NCCCN3CCN(Cc4ccccc4)CC3)c(C)o2)cc1 (stereo not drawn)	1%	-4.3%	22%	·
20	CC1CCC2(CC1)NC(=O)N(CC(=O)c1ccc3c(c1)OCO3)C2=O (stereo not drawn)	5%	0.1%	·	·
21	COc1cc(/C(=C/c2ccccc2)c2ccccc2)c2c(c1)oc1ccccc12	1%	6.3%	-9%	·
22	Cn1cccc1Cc1nnc(SCC(=O)NCc2ccccc2)n1-c1ccc(F)cc1	0%	-7.8%	2%	-10
23	Cc1cc(C)c(C)c(S(=O)(=O)N2CCN(C(=S)NCC3CCCO3)CC2)c1C (stereo not drawn)	4%	6.2%	-1%	-3
24	COc1ccc(C2OCC3(O)C(c4ccc(OC)c(OC)c4)OCC23)cc1OC (stereo not drawn)	17%	1.2%	-1%	5
25	C/C(=N\O)C1CC(CC(=O)O)C1(C)C (stereo not drawn)	6%	-3.6%	0%	7
26	Cc1cc(C)c(O)c(-c2n[nH]c3c2C(c2cccc(O)c2)N(Cc2ccco2)C3=O)c1 (stereo not drawn)	-4%	-1.0%	18%	-23
27	COc1ccc2c(c1)c(/C=N/Nc1nc3ccccc3[nH]1)c(C)n2C	-4%	-1.5%	?	-16
28	O=S(=O)(c1cccc(-c2cn3ccccc3n2)c1)N1CCCCC1	-5%	-0.2%	-7%	·
29	Cc1ccc(S(=O)(=O)NN2C(=O)/C(=C/c3cccnc3)SC2=S)cc1	-26%	-2.4%	-3%	·
30	CCOc1ccccc1C1C(C(N)=O)=C(C)Nc2nc(CCCO)nn21 (stereo not drawn)	-13%	-2.1%	2%	2
31	Cc1ccc(Cn2ccc(NC(=O)c3nn(C)cc3Cl)n2)cc1	7%	-2.1%	-40%	-1
32	CCCCC(CCC(=O)O)(C(=O)OCC)c1csc(N)n1 (stereo not drawn)	0%	1.0%	-1%	10
33	O=C(NCC1CCCO1)c1cc(-c2ccncc2)nc2ccc(S(=O)(=O)N3CCOCC3)cc12 (stereo not drawn)	-11%	-0.5%	-12%	-1
34	COc1cc(Cl)ccc1OCc1cc(C(=O)N2CC[C@@H]3CCCC[C@H]3C2)no1	-4%	?	-51%	·
35	CC(C)(C)c1ccc(S(=O)(=O)NCC(=O)N2CCCC2)cc1	-21%	-4.5%	5%	·
36	CCOC(=O)CN(C(=O)Cn1nnc(-c2ccc(C)cc2)n1)C(CC)C(=O)NC1CCCC1 (stereo not drawn)	2%	0.4%	-6%	-4
37	CCc1ccc(N(CC(=O)Nc2ccc(NC(C)=O)cc2)S(=O)(=O)c2ccccc2)cc1	-6%	1.0%	-1%	8
38	O=C(CO/N=C/c1ccc(OC(F)F)cc1)NCc1ccco1	-1%	-3.3%	-4%	2
39	Cc1[nH]c2ccc(-c3nnc(SCC(=O)NCc4ccco4)n3Cc3ccccc3)cc2c1C	-6%	0.4%	19%	-8
40	Cn1c(NCCCN2CCOCC2)nc2c1c(=O)n(Cc1ccc(Cl)c(Cl)c1)c(=O)n2C	11%	-3.0%	1%	1
41	CCOc1ccccc1NC(=S)NC(=O)C1CCCCC1	6%	1.1%	-4%	·
42	O=S(=O)(c1ccc(N2CCN(CCO)CC2)nc1)N1CCCCC1	15%	-2.6%	-1%	-3
43	CN(C)c1nc(NCc2ccccc2)nc(Oc2ccc(=O)[nH]n2)n1	17%	1.7%	-12%	4
44	CCOC(=O)CCNCc1ccc(OC)c(OC)c1	4%	-5.3%	-1%	-28
45	COc1ccc(S(=O)(=O)N2CCN(C(=O)N3CCOCC3)C2C)cc1 (stereo not drawn)	-5%	1.3%	-1%	·
46	COc1ccc(NC(=O)COC(=O)CNS(=O)(=O)c2ccc(F)c(F)c2F)cc1OC	-1%	-4.2%	1%	-4
47	CCOc1ccc(S(=O)(=O)N2CCCC(C(=O)NCc3ccncc3)C2)cc1Cl (stereo not drawn)	-11%	2.4%	8%	·
48	O=C(CSc1nnc(CNc2cccc(C(F)(F)F)c2)n1Cc1ccco1)NCc1ccco1	9%	-6.5%	-6%	-1

# Profiles, looked up by structure:
# Results for `CCOc1ccccc1NC(=S)NC(=O)C1CCCCC1` : Rango dissoc inh: 6%; Rango complex inh: 1.1%; miR-21 FLuc: -4%; GLA inh pH 4.5: ·
# Results for `CCOc1ccc(S(=O)(=O)N2CCCC(C(=O)NCc3ccncc3)C2)cc1Cl` (stereo not drawn) : Rango dissoc inh: -11%; Rango complex inh: 2.4%; miR-21 FLuc: 8%; GLA inh pH 4.5: ·

# Later entries:
no.	molecule	Rango dissoc inh	Rango complex inh	miR-21 FLuc	GLA inh pH 4.5
49	CCOc1c(Cl)cc(C(=O)Nc2ccccc2C(=O)O)cc1Cl	15%	0.3%	-10%	2
50	Nc1nnc(SCC(=O)Nc2ccc(Cl)c(C(=O)O)c2)s1	21%	?	-1%	0
51	O=C(NCc1ccc(-c2csnn2)cc1)C1CC1	-5%	-1.6%	-3%	-4
52	CN(Cc1ccccc1)C(=O)COC(=O)CCC(=O)c1ccc(Cl)cc1	4%	0.7%	·	·
53	CCOc1ccc(NC(=O)CSc2ccc(-c3cccnc3)nn2)cc1	?	-0.2%	-1%	·
54	Cc1cccc(N=c2c([N+](=O)[O-])nn(-c3ccc(Cl)cc3)n2O)c1	?	-0.8%	-24%	4
55	Cc1cc2c(cc1S(=O)(=O)N1CCCC1)n(C)c(=O)c(=O)n2C	-1%	-2.6%	-1%	·
56	N#Cc1nnn(-c2ccc(Cl)cc2)c1N	19%	1.5%	-4%&-3%	0&2
57	C=CCc1cc(Cl)ccc1OCCCn1ccnc1	-10%	3.6%	-7%	·
58	Cc1noc(C)c1COc1ccc(C(=O)OCC(=O)N2CC3(C)CC2CC(C)(C)C3)cc1 (stereo not drawn)	1%	-1.0%	3%	-5
59	O=C(Cn1c(=O)oc2cc(S(=O)(=O)N3CCCC3)ccc21)N1CCN(c2ccccc2)CC1	-6%	-2.8%	0%	-7
60	CCOC(=O)C1(Cc2ccc(Cl)cc2)CCN(Cc2cnc(N)nc2)CC1	1%	-0.2%	0%	-1
61	O=C(O)C1CC=CCC1C(=O)Nc1ccccc1C(=O)N1CCN(c2ccccc2)CC1 (stereo not drawn)	2%	-7.3%	-2%	-1
62	CCOc1ccc(NS(=O)(=O)c2cc(C(=O)NCC3CCCO3)ccc2Cl)cc1 (stereo not drawn)	0%	0.9%	·	·
63	O=C(COc1ccccc1)Nc1nccs1	-1%	-1.5%	-16%	-1
64	COc1ccc(CNC(=O)C2CCCN2C(=O)NCc2ccccc2)cc1 (stereo not drawn)	-20%	0.2%	8%	·
65	N#Cc1ccccc1NC(=O)COC(=O)CN1C(=O)C2CCCCC2C1=O (stereo not drawn)	9%	-6.1%	·	·
66	Cc1onc(-c2ccccc2)c1C(=O)OCC(=O)NC(=O)c1ccccc1	-4%	1.2%	·	·
67	Cc1ccc(/C=N/NC(=O)C2(O)c3ccccc3-c3ccccc32)o1	-3%	-0.6%	-14%	13
68	Cn1c(SCC(=O)NC2CCCC2)nc2c(c1=O)SCC2	4%	0.2%	-2%	·
69	Cc1ccccc1/C=C1\Oc2ccccc2C1=O	13%	-0.2%	·	·
70	Cc1cc(NC(=O)c2cc(-c3ccccn3)nc3c(Cl)cccc23)no1	-3%	-1.9%	6%	·
71	O=C(c1ccc2c(=O)n3c(nc2c1)CCCCC3)N1CCN(c2ccc(Cl)cc2)CC1	21%	-4.3%	12%	·
72	Cc1ccc(C)c2[nH]c(=O)c(CN(Cc3cccs3)C(=S)NCc3ccco3)cc12	9%	6.3%	1%	6
73	COCCNC(=O)C(OC(=O)c1ccco1)c1ccc(OC)cc1 (stereo not drawn)	0%	-1.6%	·	·
74	O=C(NCc1ccco1)C(c1ccc(F)cc1)N(C(=O)Cc1cccs1)c1cccnc1 (stereo not drawn)	-3%	-1.5%	5%	0
75	Cc1ccc(CN2CCN(/N=C/c3cccnc3)CC2)cc1	3%	14%	-3%	1
76	CCn1c(CSc2nc(C)cc(C)n2)nnc1SCC(N)=O	-18%	-4.2%	4%	10
77	CC(=O)CC(=O)NC(=NC1CCCCC1)Nc1nc(C)cc(C)n1	-18%	-1.5%	0%	0
78	COc1cc2c(cc1OC)C(C)N(C(=O)/C=C/c1cc(OC)c(OC)c(OC)c1)CC2 (stereo not drawn)	-1%	-4.9%	-4%	·
79	O=C(CNC(=O)c1cccc(F)c1)OCC(=O)N1CCCc2ccccc21	5%	2.0%	-3%	12
80	CN1CCN(C(=O)CCc2nc3ccccc3n2-c2ccccc2)CC1	5%	0.0%	0%	-6
81	CCOC(=O)Cc1nnc(NC(=O)CSc2nnc3c4ccccc4n(C)c3n2)s1	1%	3.1%	-7%	-4
82	Oc1ccc(C[C@H]2CNC(=S)N2CC2CCCN2C[C@H](Cc2ccccc2)N2C[C@H](Cc3ccc(O)cc3)N(CC3CCCCCC3)C2=S)cc1 (stereo partly drawn)	12%	-0.2%	·	·
83	CC1=NS(=O)(=O)NC(C)(C)C1	-6%	-3.6%	·	·
84	COc1ccc(OC)c(C2C3CN(C(C)C)CC=C3C(C#N)=C(N)C2(C#N)C#N)c1 (stereo not drawn)	?	?	-4%	-17
85	O=C(CC1NCCN(Cc2ccccc2)C1=O)Nc1ccc(Cl)cc1 (stereo not drawn)	-12%	0.2%	-5%	-16
86	Cc1ccc(C(=O)NC2CCS(=O)(=O)C2)cc1S(=O)(=O)N1CCOCC1 (stereo not drawn)	-8%	4.1%	-2%	-7

# Not all compounds are listed, so the mix of outcomes need not match the whole.
